LANA-H2A inh: blocks KSHV LANA binding to histone H2A/H2B | inhibition, % (concentration not given with the values) | cell-free LANA-H2A/H2B peptide, fluorescence polarization | hit rate 0.6% among 320,000 | Q9QR71; in the data active means inhibition mostly above about 10%, no sharp cut-off; inactive means mostly below about 6.7%;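 further: stock transfer was 7.5 nL into about 10 µL; 0% = median of vehicle wells and 100% = median of positive control wells; one replicate is shown; the record names a cut of 25% in any replicate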
MLL AF4-AF9 inh: inhibitors of human MLL-AF4/AF9 interaction; inhibition, % at 10 µM; P42568; AlphaScreen, biotin-AF4 peptide binding to FLAG-AF9; hit rate 0.47% among 350,000;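 active means every replicate reaching a set inhibition limit, whatever the replicate mean, cut at about 25% in these data; inconclusive means mean inhibition reaches that limit but some replicates miss it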;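 further: 0% = plate neutral control median and 100% = total signal loss; the record names both 10 and 1 µM as test concentration; the first replicate is given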
Target sequence (P42568 whole entry, looked up): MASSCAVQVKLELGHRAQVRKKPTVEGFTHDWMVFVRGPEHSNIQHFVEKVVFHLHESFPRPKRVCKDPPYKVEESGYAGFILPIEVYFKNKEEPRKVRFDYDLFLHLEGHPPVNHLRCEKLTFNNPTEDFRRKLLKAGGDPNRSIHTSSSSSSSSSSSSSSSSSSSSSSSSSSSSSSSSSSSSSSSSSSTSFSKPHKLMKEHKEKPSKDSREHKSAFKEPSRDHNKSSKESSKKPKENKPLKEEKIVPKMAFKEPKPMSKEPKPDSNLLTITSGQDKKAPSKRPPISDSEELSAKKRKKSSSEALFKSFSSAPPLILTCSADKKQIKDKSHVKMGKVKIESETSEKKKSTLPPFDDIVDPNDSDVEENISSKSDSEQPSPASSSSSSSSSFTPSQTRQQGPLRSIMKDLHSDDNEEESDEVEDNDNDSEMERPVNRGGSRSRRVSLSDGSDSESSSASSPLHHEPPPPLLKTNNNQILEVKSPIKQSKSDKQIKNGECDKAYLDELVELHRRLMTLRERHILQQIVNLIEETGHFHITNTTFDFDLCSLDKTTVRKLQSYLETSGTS
RanGTP-Impb inh: inhibitors of RanGTP-importin-beta interaction, primary screen, biochemical, FRET, CFP-Ran, YFP-importin-beta, homogeneous; cell-free CFP-Ran/YFP-importin-beta FRET ratio; hit rate 1.1% among 300,000; inhibition, % (test concentration not listed);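 active means most replicates above 15%; inconclusive means exactly half above 15%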;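 further: 0% = DMSO wells and 100% = Ran loaded with GDP instead of GTP; wells of about 40 µL received 100 nL stock; the first replicate is given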
Beta cell apopt: blocks beta cell apoptosis; INS-1E cytokine-induced death, ATP luminescence, 48 h; percent of positive-control rescue, neutral wells zero; protection from apoptosis, % (test concentration not listed); hit rate 0.8% among 300,000; AID 435005;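 active means all replicates at 75% or more, or half of them and the mean; inconclusive means half reach 75% but not the mean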;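 further: 0% = cytokine-treated negative control wells and 100% = positive control rescue; higher means more ATP so stronger rescue from cytokine killing; wells of about 40 µL received 100 nL stock; the first replicate is given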
A1 inh: inhibitors of the anti-apoptotic protein A1, read as caspase activation. caspase activation, % (concentration not given with the values). MEF A1-2A-BIM cells, Caspase-Glo 3/7 luminescence, 3 h; percent of clofoctol response, vehicle zero. hit rate 0.066% among 330,000;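 active means over half of replicate activation scores above 10%, or exactly half above 10 with the replicate mean above 10; inconclusive means replicate mean below 10 yet half the replicates above 10; inactive means over half of replicates below 10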;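 further: wells of about 30 µL received 50 nL stock; many hits fall short of the cut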
Calb FLC: C. albicans growth modulation with fluconazole | C. albicans CaCi-2 (fluconazole-resistant clinical isolate) + fluconazole, Alamar Blue growth, 48 h | AID 1979 | growth inhibition, % (test concentration not listed) | hit rate 0.57% among 300,000;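 active means most replicates above 75%; inconclusive means exactly half above 75%; inactive means most below 75%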;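 further: all wells also contain fluconazole at 8 µg/ml as a sub-toxic cotreatment; 0% = median of DMSO wells and 100% = median of geldanamycin control wells; wells of about 8 µL received 7.5 nL stock; the first replicate is given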
T cruzi inh: T. cruzi replication inhibition; hit rate 1.4% among 300,000; T. cruzi beta-gal in NIH3T3, luminescence, 90 h; AID 1885; inhibition, % (no concentration beside the values);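 active means mean inhibition across valid replicates above about 55%, limit read from the data; inconclusive means mean below that limit but half or more replicates reach it; inactive means mean below it, under half of replicates reach it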;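 further: signal also drops with host cell toxicity which is not excluded here; 0% = plate median of DMSO wells and 100% = zero luminescence signal; higher percent means less beta-gal luminescence so fewer parasites; stock transfer was 50 nL into about 50 µL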
Vif A3G: HIV-1 Vif–A3G interaction blockers – biochemical, TR-FRET, GST-Vif 1-94, biotin-A3G peptide, dose response retest, primary screen (AID 1117319) | TR-FRET GST-Vif / biotin-A3G peptide binding; higher % means a stronger effect; test concentration not given here; strong numbers were not always called active | inhibition, %, or IC50 in µM where a hit was titrated | hit rate 0.57% among 260,000;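 active means above the screen mean plus three standard deviations and confirmed in dose response; inconclusive means results disagree or hit not tested in dose response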;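 further: Vif residues 1-94 fused to GST binding biotinylated APOBEC3G peptide 110-148; 0% = full assay without inhibitor and 100% = GST in place of GST-Vif; retest series ran down from 100 µM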
Starred values were filed as active, the others as inactive; i = inactive; ? = inconclusive; . = not tested or not shown; & = joins results of further samples.

SMILES	LANA-H2A inh	MLL AF4-AF9 inh	RanGTP-Impb inh	Beta cell apopt	A1 inh	Calb FLC	T cruzi inh	Vif A3G
CCOC(=O)c1[nH]c2ccc(OC)cc2c1NC(=O)CCN1CCCC(C)C1 (stereo not given)	0.0	.	-1.6	.	-0.2	0	3	-4%
Clc1ccc(C2=NNC(=NCC3CCCO3)SC2)cc1 (stereo not given)	3.4	4.9	-0.2	-15	-0.2	-1	1	.
Cc1cccc(C(=O)NCC(=O)NCCCSc2ccccc2)c1	-7.6	-0.3	1.6	-3	-0.5	8	-1	-6%
O=C(CSc1nc(-c2ccccc2Cl)ns1)c1ccc(Cl)cc1	2.2	.	0.9	-2	-0.2	12	26	.
CCCCNC(=O)CCn1nc(-c2ccc(C)cc2)c2ccccc2c1=O	-2.4	-3.8	-0.8	6	1.1	-1	8	-4%
Cc1ccc(/C=N/NC(=O)CCn2nc(C)cc2C)c(C)c1	1.4	0.4	-3.6	-2	1.1	5	-1	-1%
CC(C)c1cccc(-c2ccc3c(c2)S(=O)(=O)c2cccc(C(=O)NC4CCCC4)c2C3=O)c1	-0.6	-3.0	.	8	7.3*	.	.	.
CCOc1ccccc1OCCCC(=O)N1CCN(S(=O)(=O)c2cccc(F)c2)CC1	4.3	.	-2.9	3	0.1	-6	3	-4%
N#Cc1c(N2CCN(C(=O)c3ccccc3)CC2)nc(-c2ccccc2)c2c1CCCC2	-0.3	.	-2.5	3	-0.1	-5	23	-1%
Cc1cccc(C(=O)N/N=C2\CS(=O)(=O)N(C)c3ccsc32)c1	-1.3	-1.9	?	22	-0.5	0	35	23%
Cc1ccccc1OCc1nnc(SCCN2CCCC2)n1-c1ccccc1	1.1	3.4	9.0	-3	-0.1	-22	6	-2%
N=c1c2c(-c3ccccc3)c(-c3ccccc3)oc2ncn1Cc1ccco1	0.6	.	-3.7	3	1.5	6	52	1%
CCN(CC(=O)Nc1ccc2c(c1)OCCO2)C(=O)COc1cc(C)ccc1Cl	-0.7	3.2	3.2	8	-0.1	0	-2	-1%
CCOC(=O)CC(NC(=O)CCS(=O)(=O)c1ccc2c(c1)n(C)c(=O)c(=O)n2C)c1ccc(C)cc1 (stereo not given)	0.4	-1.4	-0.4	-4	-0.1	-1	-2	.
C[C@H](NC(=O)N1CCn2c1nc1ccccc12)C(=O)NC1CCCCC1	5.7	-4.0	-0.5	-6	0.6	-5	0	-9%
O=C(c1ccc(CS(=O)c2cccc(Cl)c2)o1)N1CCN(C2CCCCC2)CC1 (stereo not given)	-1.3	-0.2	2.5	-13	0.5	5	39	8%
Cc1ccc(SCCNC(=O)/C=C/c2ccc([N+](=O)[O-])cc2)cc1	0.2	1.4	-3.4	.	-0.4	3	16	.
CC(C)Cc1cc(C(=O)Nc2ccc(F)cc2F)no1	-3.2	2.0	-0.8	-1	-6.6	-4	4	0%
COc1ccccc1C(=O)NCCSCc1ccccc1Cl	-0.4	-1.5	2.0	1	-0.4	4	11	.
CCN1CCN(CCCNC(=O)CS(=O)(=O)Cc2nc(-c3cccc(OC)c3)oc2C)CC1	16	5.3	-4.1	4	0.8	3	12	8%
NC(=O)c1cc(Cl)ccc1OCC(=O)Nc1ccc2c(c1)OCO2	2.5	2.8	.	-1	-0.5	.	.	0%
COc1ccc(OCCNC(=O)c2cc(C3CC3)nc3c2cnn3C(C)C)cc1	-1.4	5.6	.	8	-1.7	.	.	3%
O=C(CSc1nc(O)c(Cc2ccccc2)c(=O)[nH]1)c1ccccc1	-1.0	-1.4	2.0	-17	1.2	-6	-6	-3%
C=CCSc1nc2ccccc2n1S(=O)(=O)c1ccc(C)cc1	2.3	.	.	-1	0.3	.	.	-9%
c1ccc2c(c1)Oc1cccc3cccc-2c13	-7.1	-1.4	27	-4	0.1	-5	-2	?

The results go on:
SMILES	LANA-H2A inh	MLL AF4-AF9 inh	RanGTP-Impb inh	Beta cell apopt	A1 inh	Calb FLC	T cruzi inh	Vif A3G
O=C1C2C3C=CC(CC3)C2C(=O)N1c1nccs1 (stereo not given)	2.2	-1.7	5.7	-8	0.2	-5	-6	29%
Cc1cc(C)cc(N2CN=C3SCC(=O)N3C2)c1	-1.1	.	-1.9	5	0.6	-12	-8	.
C[C@H](CO)N1C[C@H](C)[C@@H](CN(C)C(=O)Nc2ccccc2)Oc2ccc(NC(=O)NC3CCCCC3)cc2C1=O	1.5	-6.6	.	-11	0.6	.	.	.
CC(C)[C@H](NS(=O)(=O)c1cccc(C(F)(F)F)c1)C(=O)OCC(=O)NC(=O)NCc1ccco1	-2.4	3.6	.	-5	0.1	.	.	.
Cc1cc(C)nc(SCC(=O)c2ccc(Cl)cc2)n1	3.6	-1.2	-1.8	-4	1.4	-7	8	-6%
CCN(C(=O)COC(=O)CNC(=O)c1cccc(C)c1)c1c(N)n(Cc2ccccc2)c(=O)[nH]c1=O	5.1	-5.7	-4.6	1	0.1	.	8	-3%
Cc1sc2nc3n(c(=O)c2c1C)CCCCC3	3.4	.	9.8	-3	0.1	-2	2	-6%
COC(=O)C(Cc1ccccc1)NC(=O)c1ccc(C)cc1 (stereo not given)	4.4	-3.7	3.6	-6	0.2	6	-4	18%
CCOC(=O)CCc1c(C)c2ccc(OCc3cc([N+](=O)[O-])ccc3OC)cc2oc1=O	4.2	.	-0.9	1	-0.1	0	32	2%
O=C(CN1CCC2(CC1)OCCO2)c1ccc2cc[nH]c2c1	-9.1	.	0.9	-8	0.2	-4	-8	2%
COc1cccc(NC(=O)C2c3cc(OC)c(OC)cc3C(=O)N(C)C2c2cccnc2)c1 (stereo not given)	-1.3	.	5.7	.	1.2	8	2	-4%
NC(=O)/C(=C/c1ccco1)NC(=O)c1ccc(Br)o1	-1.6	.	1.5	5	0.6	0	9	.
Cc1nc(-c2ccc(Cl)cc2)sc1C(=O)O	0.0	-1.3	-0.1	2	-12	-4	-4	-11%
O=C(Cn1ccc2ccccc2c1=O)NCC(=O)N1CCCCC1	7.2	11	0.5	1	-0.2	3	0	.
CN1CCC(NC(=O)NC2CCCCC2)CC1	4.4	-6.2	-3.6	1	-0.4	-2	39	24%
CC(C)c1csc(CN2CCN(Cc3ccc(F)cc3)C(CCO)C2)n1 (stereo not given)	-3.8	0.1	2.3	-7	-0.1	1	50	1%
CCN(C(=O)CSc1nc2ccccc2n1CCc1ccccc1)C1CCS(=O)(=O)C1 (stereo not given)	-1.1	.	-3.6	1	0.6	4	5	1%&2%
CCOC(=O)c1ccccc1NC(=O)c1nc2nccc(C)n2n1	-0.5	.	2.6	3	0.1	-3	14	10%
COc1cc(C(=O)O/N=C(\N)Cc2ccc([N+](=O)[O-])cc2)cc(OC)c1OC	-3.6	4.8	2.0	12	-0.2	8	2	-9%
CCCCCCNC(=O)CCCCCNS(=O)(=O)c1ccc(Br)cc1	7.3	-1.8	0.8	-6	0.9	19	4	6%
O=C(Oc1ccc(F)cc1)c1cccnc1	-0.9	1.1	-1.5	-6	0.7	-4	-9	-3%
O=C(O)/C=C/c1cccc(NC(=O)c2ccc(Cl)cc2)c1	-4.5	2.8	1.3	8	0.3	-9	5	?
CC(C)(C)NC(=O)c1nc2ccccc2s1	.	.	-1.1	-2	-0.8	-33	-11	?
CSCC[C@H](NC(=O)c1ccc(Cl)c(S(=O)(=O)N2CCCC2)c1)c1nc2ccccc2[nH]1	-1.8	7.1	-3.3	2	-0.2	-19	-19	6%
Cc1ccc(C(=O)N(Cc2ccc3c(c2)OCO3)Cc2nc3ccccc3c(=O)[nH]2)cc1	-4.4	5.8	-1.4	5	-0.2	-2	11	10%

Next section.
SMILES	LANA-H2A inh	MLL AF4-AF9 inh	RanGTP-Impb inh	Beta cell apopt	A1 inh	Calb FLC	T cruzi inh	Vif A3G
Cc1nc(SCC(=O)N2c3ccccc3Sc3ccccc32)n[nH]1	5.6	.	0.6	2	0.0	-4	43	0%
COc1cccc(CN(C(=O)Cc2c[nH]c3ccccc23)C(C(=O)NC2CCCCC2)c2ccc(C)o2)c1 (stereo not given)	7.0	-3.5	3.8	20	0.7	-3	34	.
CCC1CCc2c([nH]c3ccccc3c2=O)O1 (stereo not given)	-2.2	.	-0.8	-5	0.0	-10	-4	.
O=C(Nc1cc(S(=O)(=O)N2CCOCC2)ccc1OCC(F)(F)F)C1=COCCO1	5.3	-1.6	5.8	0	1.2	3	8	10%
COc1ccc(N(C)S(=O)(=O)c2cccc(C(=O)N(C)Cc3ccc(C)o3)c2)cc1	2.6	5.5	-4.1	2	0.0	4	6	4%
COc1cc2c(cc1OC)C(=O)N1[C@H]3c4cc(Cl)ccc4OC[C@@H]3[C@H](c3ccccc3)[C@]1(C)C(=O)N2	-3.6	2.2	.	3	0.2	.	.	.
O=C(CSc1ncn[nH]1)Nc1c(Br)cc([N+](=O)[O-])cc1Br	2.6	.	9.4	1	0.1	-8	42	65%
CC(=O)N1CCN(c2ccc(NC(=O)c3ccc([N+](=O)[O-])cc3)cc2)CC1	-8.7	5.0	1.0	-7	-0.8	2	2	.
Cc1ccc(/C=N/n2c(-c3ccc(Cl)cc3)n[nH]c2=S)s1	-0.9	-3.4	-1.7	-4	0.0	26	9	-4%
O=C(CCCN1C(=O)/C(=C/c2ccccc2Cl)SC1=S)Nc1cccnc1	-5.8	1.9	-1.0	-14	-3.6	52	8	5%
Cc1occc1-c1nnc(SCC(=O)c2ccccc2)n1CC1CCCO1 (stereo not given)	2.3	.	-0.4	-5	-0.1	-1	-6	3%
COc1ccc(-c2noc(C3CCCN(S(=O)(=O)c4ccc(C)c(Cl)c4)C3)n2)cc1OC (stereo not given)	1.6	.	1.8	-4	-0.5	24	35	1%&-10%
CC(C)c1c(C(=O)N/N=C/C2CC=CCC2)nnn1-c1nonc1N (stereo not given)	1.3	1.7	5.4	-1	0.4	-47	1	.
CC(C)n1ncc2c(C(=O)N3CCN(c4ccccc4)CC3)cc(-c3ccccc3)nc21	i	4.0	.	2	-0.2	.	.	-6%
COc1cccc(CN2CC(C(=O)N(C)Cc3ccc(C)cc3)CCC2=O)c1 (stereo not given)	14*	1.5	6.9	-6	0.6	7	3	.
Cc1ccc(C(C)C)c(OCc2nnc(SCC(=O)Nc3nccs3)n2C)c1	-1.9	.	4.0	-5	0.5	-1	-2	2%
CCOC(=O)/C=C1\SCC(=O)N1CC(=O)Nc1ccc(OC)c(OC)c1	-2.7	.	7.9	-6	0.2	-4	-2	5%
COc1cccc(/C=N\Nc2nncc(-c3ccccc3)n2)c1	0.9	.	.	0	2.2	.	.	30%
O=C(CSc1nc2ccc(Cl)cc2[nH]1)NCc1ccco1	0.7	.	2.6	.	0.1	-6	-10	17%
CCOC(=O)c1c(C)cc(C)n2c1nc1ccccc12	3.7	.	-2.0	.	-0.2	-15	-12	-5%
Cc1cc(C(=O)N2CCc3ccccc32)c2cc(F)ccc2n1	0.5	.	1.1	-11	0.0	9	7	14%
O=C(CSc1nnnn1-c1ccccc1)Nc1ncc2c(n1)CC(c1ccccc1)CC2=O (stereo not given)	-3.9	.	0.2	5	1.2	-6	-12	3%
CCOC(=O)C1=C(C)N(C)C(=O)NC1c1cccc(O)c1 (stereo not given)	6.0	.	5.8	-2	-0.3	-8	-15	13%
CN(C(=O)COC(=O)C(Cc1ccccc1)NC(=O)c1ccccc1)c1ccccc1 (stereo not given)	1.0	.	0.4	3	0.6	5	-3	.

Screening data (PubChem)
